PINK1 modulator: A Quantitative High throughput Screen to Identify Chemical Modulators of PINK1 Expression; 410,000 tested, 0.2% active; Potency, µM (series often up to 76.6 µM), for the others: at the highest dose activation (PINK1 increase), most hits filed as activators; PINK1 immunofluorescence, high-content cytometry, 24 h; active = well fitted activation curve with a large enough effect; inconclusive = small, poorly fitted or top-dose-only effect; inactive = flat fitted curve, though single readings scatter; cell line not stated here;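 also: potency is read from the fitted curve at half-maximal effect; % of control where 0% means no effect; nearly all actives have a fitted effect of over 65% in size; a mitochondrial uncoupler was the plate control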
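Stable cell line, 250 cells/well, 12 h attachment; compounds pinned at 5 concentrations, 24 h; CCCP control. Fixed with nuclear dye, primary antibodies 12 h at 10 degrees C, secondary plus cell stain; laser-scanning cytometer read.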
ClpP mod: qHTS Assay for Activators of ClpP; ATP-dependent Clp protease proteolytic subunit (Bacillus subtilis (strain 168)), P80244; purified B. subtilis ClpP, FRET peptide cleavage, 20 min; Potency, µM (top dose mostly 57.5 µM), for inactives: top-dose activity change, negative = active; 340,000 tested, 1.9% active; AID 651965, 2013; active = well fitted falling curve with a large enough effect; inconclusive = small, poorly fitted or top-dose-only effect; inactive = no such curve, though single readings can be large or run the other way; also: potency is read from the fitted curve at half-maximal effect; the source files actives as falling curves though it sought activators and does not explain the sign; nearly all actives have a fitted effect of over 65% in size; many hits overshoot -100%
Target sequence (P80244 whole entry, looked up): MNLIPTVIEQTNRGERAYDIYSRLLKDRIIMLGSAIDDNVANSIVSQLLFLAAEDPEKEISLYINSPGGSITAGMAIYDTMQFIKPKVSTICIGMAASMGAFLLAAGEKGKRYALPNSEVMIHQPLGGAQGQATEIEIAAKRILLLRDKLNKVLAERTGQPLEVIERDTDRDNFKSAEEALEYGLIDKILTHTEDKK
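Buffer: 100 mM Tris/HCl pH8, 100 mM KCl, 0.05% low protease BSA, 2.5% glycerol, 0.01% Tween-20. ClpP 10 microg/mL final; 20 min RT; delta FRET normalized to ADEP and DMSO controls.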
gsp agonist: qHTS for Agonist of gsp, the Etiologic Mutation Responsible for Fibrous Dysplasia/McCune-Albright Syndrome: qHTS; 340,000 tested, 0.13% active; Potency, µM (series often up to 76.9 µM), without a hit: at the top dose activation (cAMP increase), usual class: activators; gsp mutant cells, cAMP HTRF, 30 min; control for the full effect not named in the record; AID 624287, 2012; active = well fitted activation curve with a large enough effect; inconclusive = small, poorly fitted or top-dose-only effect, or another doubt; inactive = no such curve, though single readings can be large or run the other way; cell line not stated here;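 also: phosphodiesterase inhibitor Ro 20-1724 added with compounds to block cAMP breakdown; potency is read from the fitted curve at half-maximal effect; nearly all actives have a fitted effect of over 60% in size; about a fifth of the inactives were tested at one dose only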
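Cells stably selected in G418 were plated at 2000/well, grown 16-24 hr, then given compounds in DMSO with the PDE inhibitor […] (300 uM solution added) for 30 min at 37C; cAMP was read by HTRF.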
gsp antagonist: qHTS for Antagonists of gsp, the Etiologic Mutation Responsible for Fibrous Dysplasia/McCune-Albright Syndrome: qHTS | gsp-mutant cells, cAMP HTRF, 30 min; control for the full effect not named in the record | AID 624288, 2012 | 340,000 tested, 0.4% active | Potency, µM (highest dose often 76.9 µM), inactives show top-dose activity change, negative = inhibition, most hits filed as inhibitors; active = falling curve of any shape with a large fitted effect; inconclusive = falling curve, mostly with a smaller effect; inactive = flat or rising curve; cell line not stated here;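 also: intracellular cAMP measured with PDE inhibitor Ro 20-1724 present during compound exposure; potency is read from the fitted curve at half-maximal effect; % is scaled to controls: 0 for no effect and ±100 for the full control effect; nearly all actives have a fitted effect of over 65% in size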
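Measurement of cellular cAMP by homogeneous time-resolved fluorescence following a 30 min compound exposure at 37C. The PDE inhibitor […] was present throughout; the assay buffer was DPBS with 0.05% BSA and 0.005% Tween 20.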
Sfp inh: qHTS Assay for Inhibitors of Bacillus subtilis Sfp phosphopantetheinyl transferase (PPTase); 4'-phosphopantetheinyl transferase ffp (Bacillus subtilis), Q9F4F7; Biochemical Sfp PPTase activity, qHTS; Potency, µM, inactives show max response, negative = inhibition, hits mostly inhibitors; 310,000 tested, 3.5% active; AID 1490, 2009; active = well fitted inhibition curve with a large enough effect; inconclusive = small, poorly fitted or top-dose-only effect, or another doubt; inactive = no such curve, though single readings can be large or run the other way;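 also: the enzyme is Sfp with the accession as filed and its product quenches rhodamine fluorescence; potency is read from the fitted curve at half-maximal effect; 0% = enzyme reaction without inhibitor and -100% = no enzyme wells; top concentration of the series not given in the record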
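Buffer: 50 mM Hepes-Na pH 7.6, 10 mM MgCl2, 0.01% Nonidet P-40, 0.01% BSA. Enzyme 15 nM, pre-exposed to compound 15 min; substrates then added and fluorescence change tracked over 30 min.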
Menin MLL FP FL: qHTS Assay for Inhibitors Targeting the Menin-MLL Interaction in MLL Related Leukemias: Competition With Fluorescein Labeled MLL-derived Peptide. Fluorescence polarization, fluorescein-MLL peptide displacement from menin. FP activity change, % at 61.4 µM. 290,000 tested, under 10 active. AID 1766, 2009; inconclusive = falling polarisation curve, or a change in total fluorescence; inactive = total fluorescence flat and polarisation flat or rising; no compound was filed as active; the % refers to the polarisation; negative = inhibition;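 also: % of control where 0% means no effect; inhibitors lower the polarisation; unlabelled MLL peptide was the positive control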
D2 ag: Beta-Arrestin HTS for Positive Allosteric Modulators of the Human D2 Dopamine Receptor: Agonists. D(2) dopamine receptor (Homo sapiens), P14416. DiscoveRx PathHunter D2 beta-arrestin, luminescence, 90 min; 100% = 57 uM dopamine signal. activation, % (no concentration beside the values). 360,000 tested, 0.084% active. AID 624465, 2012; in the data active = activation above about 40%; inconclusive = about 15% to 40%; inactive = below about 15%; also: compound concentration not given in the record; the text of the record calls up to 30% inactive
Target sequence (P14416 whole entry, looked up): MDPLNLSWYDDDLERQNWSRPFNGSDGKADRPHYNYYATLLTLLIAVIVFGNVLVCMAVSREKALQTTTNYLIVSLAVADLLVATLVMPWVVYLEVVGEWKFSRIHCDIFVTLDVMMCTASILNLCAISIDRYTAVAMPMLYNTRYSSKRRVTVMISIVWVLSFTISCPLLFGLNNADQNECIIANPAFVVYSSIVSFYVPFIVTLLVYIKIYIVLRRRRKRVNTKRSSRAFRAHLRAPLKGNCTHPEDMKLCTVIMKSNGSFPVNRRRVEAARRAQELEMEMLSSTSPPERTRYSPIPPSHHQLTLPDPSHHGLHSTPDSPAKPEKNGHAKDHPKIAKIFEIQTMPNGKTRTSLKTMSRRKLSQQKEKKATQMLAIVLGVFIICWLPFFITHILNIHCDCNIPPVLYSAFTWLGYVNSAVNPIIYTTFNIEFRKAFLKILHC
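Agonist mode: compounds alone added to overnight-plated D2 PathHunter cells for 90 min at 37 C, with 57 uM final dopamine (EC100) defining full response. Beta-arrestin recruitment detected by chemiluminescent reagent, read after 1 h at ambient temperature.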
The depositor's hits bear a star; ? = inconclusive; . = no result given; & = joins results of further samples; [ ] = dose if it differs, or a comment. This is a subset; rates above refer to the full screens.

Each structure is followed by: PINK1 modulator, ClpP mod, gsp agonist, gsp antagonist, Sfp inh, Menin MLL FP FL, D2 ag
Cc1ccc(-n2c(O)c(C=NCc3ccccn3)c(=O)[nH]c2=S)cc1
  2.8%, 0.8%, -83%[inhibitor], -10%, -17%, 2.8, -3.7
Cc1ccc(CN2CCC3CCC(C3)C2)c(O)c1 (configuration not stated)
  2.8%, 1.2%, 8%[15.4 µM], 9%, ., ., -3.9
C=CCn1c(O)c(C(CC)=Nc2ccc(NC(C)=O)cc2)c(=O)[nH]c1=O
  -2.7%, -15%, 11%[15.4 µM], -14%, 13%, 0.4, -2.9
C=CCn1c(O)c(C(CC)=NC2CC2)c(=O)[nH]c1=O
  6.1%, -0.7%, 26%, 1%, 23%, 2.8, -0.3
C[C@]12CCC3C(CC[C@H]4C[C@@H](O)CC[C@]34C)C1C[C@@H](O)C2=O (some centres not stated)
  0.4%, -7.7%, -1%[15.4 µM], 10%, ., ., -4.5
Cc1cc2c(C(F)(F)F)cc(=O)oc2c2c1NCCC2
  ., 1.1%, 16µM*, 1%, 6%, ?, 0.5
COc1cc(/C=C(/C)[N+](=O)[O-])ccc1OCc1ccccc1Cl
  -2.8%, ., 12%, 8%, 14µM*, -0.4, -12
Cc1ccccc1C(=O)NNC(=S)NC(=O)COc1ccccc1
  -5.7%[38.3 µM], -2.0%, -6%, 0%, ?, -1.4, 2.8
CCn1cc(C=C2C(=O)NC(=O)NC2=O)c2ccccc21
  -0.3%, ., 31%[15.4 µM], 4%, -9%, ?, -2.5
O=c1oc(Cl)c(Cl)c2ccccc12
  -0.8%, 0.6%, ., -4%, 35µM*, 6.4, -0.9
COc1ccc(C(=O)N2CCOCC2)cc1S(=O)(=O)N1CCC(C)CC1
  3.0%, -3.3%, -19%, 9%, 20%, -1.9, -2.4
CCCCCCCCCCOC(=O)CCN1CC1
  -4.6%, -2.2%, 11%, 6%, ., ., -3.5
COc1ccc(CCN(C)Cc2c(F)cccc2F)cc1OC
  -0.9%[38.3 µM], -0.9%, 10%, -11%, 14%, 7.7, -1.4
Clc1ccc(NC2=NCCCS2)cc1Cl
  1.4%, -2.0%, 9%[15.4 µM], -8%, 10%, ., -2.2
O=C(Cc1ccccc1)N1CCN(Cc2cccc(Cl)c2)CC1
  -0.1%, -4.7%, 7%[15.4 µM], -5%, -18%, -10.0, 2.6
Cc1cc(S(=O)(=O)NCC(C)C)ccc1OCC(=O)N1CCN(Cc2ccccc2)CC1
  2.4%, 16µM*, 14%, -1%, -15%, 4.7, -2.6
O=C(CCC(=O)N1CC2C[C@@H](C1)Cn1c2cccc1=O)NCCc1ccccc1F
  0.4%, -2.1%, ., 8%, 18%, 0.9, -4.2
CC(O)CNc1ccc([N+](=O)[O-])c2cccnc12 (configuration not stated)
  -1.4%, -6.8%, 2%, -13%, -7%, 5.9, -3.6
COP(=O)(OC)C(NC(=O)c1ccc(C)cc1)C(Cl)(Cl)Cl (configuration not stated)
  3.2%, ., 7%[15.4 µM], 4%, 5%, -6.7, 0.6
C[C@H](CCC(=O)O)[C@H]1CC[C@H]2[C@@H]3CC[C@@H]4C[C@H](O)CC[C@]4(C)[C@H]3CC[C@]12C
  -1.3%, -1.1%, 4%, -14%, ?, -4.4, -3.2
CN(C)C1=NP(N(C)C)(N(C)C)=NC(c2ccccc2)=N1
  -1.5%, -1.5%, -40%[inhibitor], -14%, 9%, 0.8, -2.4
COC(=O)C1=C(c2ccc3ccccc3c2)C[C@@H]2CC[C@H]1N2C(=O)NCc1ccc(F)cc1
  0.6%, -1.3%, -2%, -33%, ., ., -4.5
COC1C(O)C(C)OC(OC2C(Oc3cccc4c(O)c5c(=O)oc6ccc(C)c7c(=O)oc(c34)c5c67)OC(C)C(O)C2O)C1O (configuration not stated)
  -1.1%, -6.4%, 14%, -11%, ., ., -1.1
CNC(=O)Oc1cccc2ccccc12
  -1.0%, ., -51%[inhibitor], 15%, 1%&10%, -2.9&3.6, 4.2
O=c1[nH]c(=O)n(Cc2ccco2)c(O)c1/C=N/N1CCCCC1
  -1.7%, -2.2%, -36%[inhibitor], 3%, -23%, ?, 2.5
CC(=O)N1N=C(c2c(O)n(C)c(=O)n(C)c2=O)CC1c1ccccc1 (configuration not stated)
  -2.1%, -0.5%, -12%[15.4 µM], -1%, -15%, 2.6, -3.3
CCOc1ccc(CN2CCCC(C(=O)c3ccccc3OC)C2)cc1 (configuration not stated)
  9.5%, ., -45%[inhibitor], 0%, 9%, 2.6, 7.0
O=c1cccc2n1C[C@H]1C[C@@H]2CN2CCCC[C@@H]12
  0.2%, ., -2%[15.4 µM], 6%, 16%, -7.9, -1.2
CCOc1ccc(-n2c(O)c(C=NCCN3CCNCC3)c(=O)[nH]c2=O)cc1
  -0.9%[38.3 µM], 1.7%, -27%, 6%, 22%, 0.3, 0.7
CCC1CCCCN1P(=O)(c1ccc(C)o1)C(C)(C)C (configuration not stated)
  -1.3%[38.3 µM], 1.5%, 9%, -6%, -14%, 4.4, -2.1
Cn1cc(NC(=O)CCl)cn1
  2.6%, ., -1%[15.4 µM], 5%, 24%, 3.0, -2.0
CCN(C(=O)Oc1ccccc1)c1ccc(C(O)(C(=O)OC)C(F)(F)F)cc1 (configuration not stated)
  0.1%, -0.1%, 7%, -2%, 1%, 2.7, -0.3
COC(=O)C1C(O)CC2CCC1N2C (configuration not stated)
  -0.6%, 0.2%, ., 5%, ., ., 3.0
COc1ccc(-n2c(CNCCc3ccc(C)cc3)nc3ccccc3c2=O)cc1
  -0.2%, -0.5%, 3%[15.4 µM], -6%, 2%, 0.4, -0.3
CCN1C(=O)C(=Cc2ccc(C)s2)C(=O)N(CC)C1=S
  1.5%, -1.3%, ?, -9%, ?, ?, -0.6
Cc1ccc(N)cc1Cl
  -0.5%, 1.9%, 7%, 6%, ., ., 2.7
COC(=O)C1=C(c2ccc(S(C)(=O)=O)cc2)C[C@@H]2CC[C@H]1N2C(=O)NC(C)C
  4.0%, -0.3%, ., 4%, ., ., -1.3
CCCCn1c(O)c(/C(CC)=N/N2CCCCC2c2cccnc2)c(=O)[nH]c1=S (configuration not stated)
  6.2%, -2.0%, 9%[15.4 µM], -7%, 0%, ., 1.1
Cc1cc([N+](=O)[O-])c2ccccc2[n+]1[O-]
  -0.4%, 0.6%, -17%, -17%, -6%, 1.2, .
CCN(CC)C(=O)c1ccc(NC(=O)c2c(C)noc2C)cc1
  -0.6%, -15%, 3%, -19%, ., ., -0.2
CCOC(=O)C1(CCc2ccccc2)CCN(Cc2cccc3c2OCO3)CC1
  ?, ., -24%, -12%, ?, -2.3, -0.1
COc1cc2oc(=O)c(CC(=O)N3C[C@H]4C[C@@H](C3)c3cccc(=O)n3C4)c(C)c2cc1Cl
  0.7%, 4.5%, ., -4%, ., ., -8.5
C=CCC1([C@@H](C)CCC)C(=O)NC(=O)NC1=O
  0.6%, -2.0%, ., -1%, ., ., 1.6
O=P(O)(O)C12CC3CC(CC(C3)C1)C2
  4.5%[38.3 µM], 0.2%, ?, 2%, 20%, 3.0, -0.1
CC(=O)c1ccc2c(c1)C1C(Cl)C(Sc3ccccc3[N+](=O)[O-])CC1C(c1ccccc1[N+](=O)[O-])N2 (configuration not stated)
  -0.8%, 0.2%, -7%, -8%, ?, 1.0, 6.4
OC12ONC(c3ccccn3)C1N1CCC2CC1 (configuration not stated)
  0.1%, ., 9%, -5%, -4%, -19, -4.2
CCOC(=O)c1c(C)n(Cc2ccccc2)c2ccc(OCC(O)Cn3nc(C)cc3C)cc12 (configuration not stated)
  -0.2%, -29%, -11%, 16%, -5%, 2.6, -4.4
O=C(Cc1c(Cl)cccc1Cl)N1CCN(Cc2ccccc2)CC1
  -0.1%, -3.7%, -9%[15.4 µM], 0%, -1%, -15, -3.3
CN1C2CC3CC1C(O3)C2O (configuration not stated)
  -0.3%, ., ., ., 0%, 0.5, .
CCCn1c(C(=O)c2ccccc2)nc2ccccc21
  5.8%, -2.9%, -35%[inhibitor], 0%, 15%, 0.0, -2.3
Cc1ccc(CNC2=NCCS2)cc1
  0.9%, ., -2%, 3%, 9%, 1.8, -2.2
CCN1CCN(C(=O)COc2ccc(S(=O)(=O)Nc3ccc(Cl)cc3)cc2)CC1
  -2.0%, -4.6%, -4%, 5%, -9%, 1.2, -2.6
COc1ccc(CCn2c(O)c(/C=N/N3CCOCC3)c(=O)[nH]c2=O)cc1OC
  1.4%, -2.6%, -79%[inhibitor], -1%, 19%, 0.6, -5.0
O=C1NC(=O)C(=Cc2ccc(Oc3ccc([N+](=O)[O-])cc3)cc2)C(=O)N1
  -0.1%, 0.5%, -13%[15.4 µM], -4%, 20µM*, -7.5, -4.2
FC(F)(F)c1nc(N2CCN(c3ccccc3)CC2)nc2c1CCCCC2
  3.0%, ?, 27%, 2%, -1%, 1.6, 0.7
Clc1cccc(N2CCNCC2)c1
  0.1%, -0.4%, ., 3%, 0%&-4%, -0.1&5.0&-6.0, -4.4
CCCOc1ccc(Cc2c(Cl)nc(SC)nc2OC)cc1
  ?, ., 2%[15.4 µM], -5%, -13%, 4.8, 1.5
COc1ccc(-n2c(-c3ccccc3)nc3ccccc3c2=O)cc1
  1.0%, ., -11%[15.4 µM], -9%, 23%, 2.7, -4.0
CCC1(c2ccccc2)C(=O)N(COC)C(=O)N(COC)C1=O
  2.6%, -2.5%, ., 0%, 25%, 1.8, -4.2

Compound activity as filed in PubChem.
